# ClpP mod: qHTS Assay for Activators of ClpP; purified B. subtilis ClpP, FRET peptide cleavage, 20 min; Potency, µM (series often up to 57.5 µM), for the others: top-dose activity change, negative = active; hit rate 1.9% among 340,000; AID 651965, 2013; active = well fitted falling curve with a large enough effect; inconclusive = small, poorly fitted or top-dose-only effect; inactive = no such curve, though single readings can be large or run the other way; also: potency is read from the fitted curve at half-maximal effect; the source files actives as falling curves though it sought activators and does not explain the sign; nearly all actives have a fitted effect of over 65% in size; many hits overshoot -100%
# Target sequence (P80244 whole entry, looked up): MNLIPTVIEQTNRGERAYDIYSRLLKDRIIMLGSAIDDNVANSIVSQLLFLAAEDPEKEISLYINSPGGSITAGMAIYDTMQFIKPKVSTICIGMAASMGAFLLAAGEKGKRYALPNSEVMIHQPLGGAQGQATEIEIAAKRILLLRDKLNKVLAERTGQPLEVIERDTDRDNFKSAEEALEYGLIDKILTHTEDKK
#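 FRET quenching reversal measured ClpP activation: 10 microg/mL B. subtilis ClpP at pH 8 with the FRET-FV decapeptide, read at 430 nm after 320 nm excitation. The 20-min minus 0-min signal was scaled between DMSO/no-enzyme wells and ADEP (5.8 microM final).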
# Menin MLL FP FL: inhibitors of human menin-MLL interaction, wild-type MLL peptide. Fluorescence polarization, fluorescein-MLL peptide displacement from menin. FP activity change, % at 61.4 µM. 290,000 tested, under 10 active. AID 1766; inconclusive = falling polarisation curve, or a change in total fluorescence; inactive = total fluorescence flat and polarisation flat or rising; no compound was filed as active; the % refers to the polarisation; negative = inhibition;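 also: % of control where 0% means no effect; inhibitors lower the polarisation; unlabelled MLL peptide was the positive control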
# CtBP-E1A blk: blocks the CtBP interaction with E1A; AlphaScreen GST-E1A/His-CtBP binding, 1536-well; hits give low values; control for the full effect not named in the record; activity change, % (test concentration not listed); hit rate 0.49% among 340,000; AID 651724; in the data active means activity change below about -65%; inconclusive means about -30% to -65%; inactive means above about -30%; also: % is scaled to controls: 0 for no effect and ±100 for the full control effect; compound concentration not given in the record
#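 GST-E1A and His-tagged CtBP (125 nM each as 5X stock) were preincubated with pin-transferred compound for 2 h at 37 °C in the dark, then glutathione donor and nickel acceptor beads were added for 1 h before AlphaScreen reading.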
# Sfp inh: inhibitors of Bacillus subtilis Sfp phosphopantetheinyl transferase; Biochemical Sfp PPTase activity, qHTS; Potency, µM, without a hit: max response, negative = inhibition, usual class: inhibitors; hit rate 3.5% among 310,000; Q9F4F7; active = well fitted inhibition curve with a large enough effect; inconclusive = small, poorly fitted or top-dose-only effect, or another doubt; inactive = no such curve, though single readings can be large or run the other way;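 also: the enzyme is Sfp with the accession as filed and its product quenches rhodamine fluorescence; potency is read from the fitted curve at half-maximal effect; 0% = enzyme reaction without inhibitor and -100% = no enzyme wells; top concentration of the series not given in the record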
#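 Compounds were incubated with enzyme (final 15 nM) for 15 min at room temperature before substrate addition started the reaction. Fluorescence at 525 nm excitation, 598 nm emission was recorded immediately and after 30 minutes.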
# TRPV1 potentiator: human TRPV1 potentiation; AID 540277; potentiation, % at 8.33 µM; hit rate 0.02% among 320,000; Q8NER1; TRPV1-expressing cells, Fluo-8 calcium influx, capsaicin EC20 potentiation; host cell line not named in the record; control for the full effect not named in the record; active means potentiation above 80%; inconclusive means 30% to 80%; inactive means below 30%; also: 0% is about no effect
# Target sequence (Q8NER1 whole entry, looked up): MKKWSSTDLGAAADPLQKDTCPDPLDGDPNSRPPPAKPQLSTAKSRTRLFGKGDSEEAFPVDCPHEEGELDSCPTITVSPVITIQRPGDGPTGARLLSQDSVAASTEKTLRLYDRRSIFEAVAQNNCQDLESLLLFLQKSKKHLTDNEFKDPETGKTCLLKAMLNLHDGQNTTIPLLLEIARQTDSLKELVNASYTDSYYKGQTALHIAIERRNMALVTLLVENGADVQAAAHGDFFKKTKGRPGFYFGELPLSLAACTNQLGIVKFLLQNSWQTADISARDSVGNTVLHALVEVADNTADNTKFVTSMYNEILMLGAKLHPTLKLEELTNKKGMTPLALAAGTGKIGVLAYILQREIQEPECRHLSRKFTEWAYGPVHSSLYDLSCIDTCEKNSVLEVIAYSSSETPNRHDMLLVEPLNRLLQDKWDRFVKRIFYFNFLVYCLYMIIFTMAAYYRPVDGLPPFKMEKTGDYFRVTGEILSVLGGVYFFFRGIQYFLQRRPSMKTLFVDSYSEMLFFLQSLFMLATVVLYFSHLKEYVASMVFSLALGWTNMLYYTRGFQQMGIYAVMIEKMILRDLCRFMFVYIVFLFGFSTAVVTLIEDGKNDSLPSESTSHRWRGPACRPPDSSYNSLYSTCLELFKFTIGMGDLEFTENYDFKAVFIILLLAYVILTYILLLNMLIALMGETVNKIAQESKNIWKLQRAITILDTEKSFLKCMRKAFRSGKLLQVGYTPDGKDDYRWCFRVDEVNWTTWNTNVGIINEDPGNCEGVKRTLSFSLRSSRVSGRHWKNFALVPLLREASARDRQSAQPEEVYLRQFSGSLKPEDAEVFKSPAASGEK
#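 Fluo-8 calcium influx in TRPV1-expressing cells, kinetic read (ex 480/em 520 nm). Compound added and read 3 min for agonist activity, followed by capsaicin at EC20 final and 2 min further read for enhancement.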
# gsp antagonist: gsp mutant antagonism; gsp-mutant cells, cAMP HTRF, 30 min; control for the full effect not named in the record; Potency, µM (series often up to 76.9 µM), without a hit: top-dose activity change, negative = inhibition, hits mostly inhibitors; hit rate 0.4% among 340,000; active = falling curve of any shape with a large fitted effect; inconclusive = falling curve, mostly with a smaller effect; inactive = flat or rising curve; cell line not stated here;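 also: intracellular cAMP measured with PDE inhibitor Ro 20-1724 present during compound exposure; potency is read from the fitted curve at half-maximal effect; % is scaled to controls: 0 for no effect and ±100 for the full control effect; nearly all actives have a fitted effect of over 65% in size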
#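 G418-selected cells were plated in DMEM/10% FBS for 16-24 h at 37C, then treated with compounds plus the PDE inhibitor […] (300 uM solution added) for 30 min at 37C. Intracellular cAMP was measured by HTRF after 30 min lysis at room temperature.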
# gsp agonist: activates gsp, the McCune-Albright syndrome mutation; hit rate 0.13% among 340,000; Potency, µM (doses to about 76.9 µM), inactives show at the top dose activation (cAMP increase), hits mostly activators; gsp mutant cells, cAMP HTRF, 30 min; control for the full effect not named in the record; AID 624287; active = well fitted activation curve with a large enough effect; inconclusive = small, poorly fitted or top-dose-only effect, or another doubt; inactive = no such curve, though single readings can be large or run the other way; cell line not stated here;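 also: phosphodiesterase inhibitor Ro 20-1724 added with compounds to block cAMP breakdown; potency is read from the fitted curve at half-maximal effect; nearly all actives have a fitted effect of over 60% in size; about a fifth of the inactives were tested at one dose only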
#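 Cells stably selected in G418 were plated at 2000/well, grown 16-24 hr, then given compounds in DMSO with the PDE inhibitor […] (300 uM solution added) for 30 min at 37C; cAMP was read by HTRF.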
# * hit, by the source's call; ? = inconclusive; . = no result given; & = joins results of further samples; [ ] = dose if it differs, or a comment.
SMILES	ClpP mod	Menin MLL FP FL	CtBP-E1A blk	Sfp inh	TRPV1 potentiator	gsp antagonist	gsp agonist
COC(=O)c1ccc(NC(=O)COc2cccc3c2OC(C)(C)C3)cc1	-3.0%	.	-23	.	2	-6%	3%[15.4 µM]
CCc1ccc(S(=O)(=O)NCc2cn3cccc(C)c3n2)s1	-4.4%	1.9	-7	4%	0	7%	8%
CCOC(=O)CC1(C)NC(=O)c2c(C)sc(C(=O)OCC)c2N1 (centres undefined)	?	-6.6	-1	7%	10	12%	1%
Cc1cccc(OCc2cc(-c3ccccc3)no2)c1C	-1.9%	-1.6	.	-5%	3	-5%	-1%
Cn1c(=O)cc(C(=O)N/N=C/c2ccc(F)cc2)[nH]c1=O	.	3.4	-9	?	-16	0%	5%[15.4 µM]
Cc1cc(N2CCOCC2)c2c(N)c(Br)cc(C)c2n1	-0.9%	?	3	-6%	-2	5%	-9%
Cc1ccc(-c2nc(C)sc2CC(=O)OCC(=O)Nc2c(F)cccc2F)cc1	-5.1%	4.9	11	13%	-8	-3%	?
COc1ccc(C(=O)CN2C(=O)NC3(CCCCCC3)C2=O)cc1	-2.6%	.	9	.	.	8%	-2%[15.4 µM]
CCc1ccc(NC(=O)c2cnn3ccccc23)cc1	-3.9%	0.2	-1	26%	-8	1%	5%
CCCNC(=O)c1ccc(N2CCC3(CC2)CC(c2ccccc2)=NO3)c(NC(=O)c2ccc(Br)cc2)c1	?	7.2	-3	20%	9	-7%	.
N#CCCN(C(=O)COC(=O)COc1ccccc1Cc1ccccc1)c1ccccc1	-1.5%	.	.	.	10	-9%	19%
O=C(CNS(=O)(=O)c1ccc([N+](=O)[O-])cc1)N/N=C/c1ccc(O)cc1O	?	2.0	?	8%	-2	5%	14%[15.4 µM]
COc1cc2c(cc1O)CC[n+]1cc3c(OC)c(OC)ccc3cc1-2	-0.2%	0.2	?	0%	6	-43%	.
O=C(O)C1=C(C(=O)O)C2CCC1C2	0.6%	.	-3	.	.	.	14%
COc1ccc(OC)c(NC(=O)C2CCCN(S(=O)(=O)c3c(C)noc3C)C2)c1 (centres undefined)	-1.2%	0.1	1	5%	-17	9%	-16%

# The list goes on; the last 2 above are carried over.
SMILES	ClpP mod	Menin MLL FP FL	CtBP-E1A blk	Sfp inh	TRPV1 potentiator	gsp antagonist	gsp agonist
O=C(O)C1=C(C(=O)O)C2CCC1C2	0.6%	.	-3	.	.	.	14%
COc1ccc(OC)c(NC(=O)C2CCCN(S(=O)(=O)c3c(C)noc3C)C2)c1 (centres undefined)	-1.2%	0.1	1	5%	-17	9%	-16%
CCOc1ccc(/C=N/NC(=S)Nc2c(C)cccc2C)cc1	-3.3%	-0.9	-4	3%	-3	-5%	-6%
O=C(CSc1nnnn1-c1ccc(O)cc1)Nc1cccc(S(=O)(=O)N2CCCC2)c1	-3.3%	1.2	-29	-14%	10	-21%	30%
CC(C)C1COC(c2cccn2Cc2ccccc2Cl)=N1 (centres undefined)	.	3.2	6	10%	-8	-25%	10%[15.4 µM]
Cc1ccc(SCCC(=O)Nc2ccccc2C(=O)NC(C)C)cc1	?	0.5	-3	-4%	-10	-9%	-34%
COc1ccc(CNC(=O)/C=C/C(=O)O)cc1OC	-1.2%	0.8	-6	-4%	-6	-14%	-31%
O=C(COC(=O)COc1cccc(C(F)(F)F)c1)NC1CCS(=O)(=O)C1 (centres undefined)	1.5%	.	3	.	17	-14%	-7%
c1ccc(C(NCCNC(c2ccccc2)c2ccccc2)c2ccccc2)cc1	0.3%	-5.7&9.1&-3.2	4	?	18	-1%	4%
CCCCCc1nc2c(C#N)c(-c3ccc(Cl)cc3)ccn2n1	28µM*	8.4	2	2%	-1	2%	-36%[inhibitor]
C1CCCCCC2(CCCCC1)OCC(CN1CCOCC1)O2 (centres undefined)	1.4%	2.4	4	13%	-2	3%	-4%
COc1ccc(/C=N/N2CCOCC2)cc1Cn1nc(C)c([N+](=O)[O-])c1C	0.3%	-0.8	-6	11%	-4	-20%	4%
CC(C)c1nc(SCC(=O)N2CCCC2)c2c(=O)n(C)c(=O)n(C)c2n1	-2.7%	.	-11	.	.	-12%	8%
COc1ccc2c(c1)cc1n2CCN=C1NCCO	?	6.3	6	15%	-6	11%	15%
CCn1c(CN2CCC(C)CC2)nc2cc(S(=O)(=O)N3CCCCC3)ccc21	-3.3%	.	0	.	.	.	9%
COc1ccc(CCNC(=O)c2cc(S(=O)(=O)N3CCCCC3)c[nH]2)cc1OC	-0.1%	2.6	-8	15%	-19	-4%	-46%
CCc1c(O)cc2n(c1=O)-c1ccccc1C2(C)C	-5.7%	-2.8	-7	17%	25	-22%	7%
C#CC[N+]1(CC#Cc2ccc(C)cc2)CCCCC1	.	-2.2	9	11%	13	10%	2%[15.4 µM]
O=C(c1cc(C2CC2)nn1-c1ccccc1)N1CCN(S(=O)(=O)c2ccc(F)cc2)CC1	-1.3%	.	5	.	.	.	7%
CCN1CCN(C(=O)c2cc(COc3ccc(F)cc3F)on2)[C@@H](C)C1=O	.	1.2	6	21%	1	-4%	26%
CC12C(=O)N(c3ccccn3)C(=O)C1C1C=CC2C1 (centres undefined)	-6.7%	0.6	-3	6%	10	2%	0%
CC(C)(C)n1nc2c(c1NC(=O)CCCc1ccccc1)CS(=O)C2 (centres undefined)	-0.5%	1.3	-9	-2%	?	-7%	4%
Cc1ccc(N2C(=O)c3ccc(C(=O)N4CCN(Cc5ccccc5)CC4)cc3C2=O)cc1	.	-1.3	-8	7%	14	-11%	-20%[15.4 µM]
Cc1ccc2cccc(NC(=S)NC(=O)c3ccnn3C)c2n1	-0.5%	3.6	-21	?	6	1%	3%
CCN(CC(=O)NCc1cccs1)C(=O)CN(C)S(=O)(=O)c1ccc(C)cc1	-0.2%	.	10	.	9	7%	11%
COc1ccc(CNC(=O)CCCn2nc(C)n3ccnc3c2=O)cc1	1.3%	0.9	6	-3%	15	5%	?
Oc1ccc(Cl)cc1CNCc1ccc(Cl)nc1	1.5%	.	7	.	4	1%	.
O[C@@H]1CN(Cc2ccc(-n3cccn3)cc2)CC[C@H]1N1CCN(c2ccccc2F)CC1	1.2%	0.8	-1	5%	5	-15%	0%
CC(=O)c1cccc(NC(=O)C(C)OC(=O)c2ccc3ncsc3c2)c1 (centres undefined)	-6.3%	.	.	.	-7	-8%	2%
O=C(O)CC(C(=O)O)N1C(=O)/C(=C/C=C/c2ccco2)SC1=S (centres undefined)	-0.6%	?	-13	22µM*	-3	2%	-8%
Cn1nccc1C(=O)Oc1ccc(/C=N/NC(=O)c2ccccc2O)cc1	.	-3.9	1	-13%	-7	-18%	1%
CC1CCN(C2CCN(S(=O)(=O)c3ccc(F)cc3)CC2)CC1	-5.9%	-1.6	4	?	-26	14%	0%
O=C(OCn1ncc(Cl)c(Cl)c1=O)c1ccc(F)cc1	.	1.0	.	-3%	5	.	.
COc1cc(OC)cc(N(C(=O)c2ccco2)C(C(=O)NC2CCCC2)c2ccc(N3CCOCC3)cc2)c1 (centres undefined)	0.5%	0.0	-1	-3%	3	-21%	2%[15.4 µM]
CC(C(=O)Nc1cc(C(F)(F)F)ccc1N1CCOCC1)N1C(=O)C2CCCCC2C1=O (centres undefined)	-4.5%	.	2	.	-1	4%	28%
COC(=O)c1ccc(CSc2nc3c(cnn3-c3ccc(C)cc3)c(=O)[nH]2)o1	0.5%	4.1	12	14%	-4	3%	-15%
CCN(Cc1ccc(C#CCCO)cc1)CC1CCCN(CCc2cccc(OC)c2)C1 (centres undefined)	-2.2%	-2.6	-17	18%	1	-2%	0%
Cn1c(=O)n(C)c2cc(S(=O)(=O)Nc3ccccc3C(=O)O)ccc21	?	-0.1	1	20%	20	8%	6%[15.4 µM]
CCOC(=O)N1CCN(S(=O)(=O)c2ccc3[nH]c(=O)sc3c2)CC1	-1.9%	-1.4	-2	11%	17	-13%	-1%
CCS(=O)(=O)N1CCC(C(=O)NCc2ccco2)CC1	-0.7%	0.6	2	7%	-7	10%	1%
O=C(CNC(=O)c1cccc(Br)c1)N/N=C/c1cccnc1	-0.4%	2.4	-4	10%	-2	1%	?
CCN(CC)C(=O)C1=C(C)NC(=O)NC1c1c(F)cccc1Cl (centres undefined)	-3.3%	-0.8	-9	9%	0	7%	-13%
COc1ccccc1/C=C(/NC(=O)c1ccccc1)C(=O)NCCCn1ccnc1	-2.2%	-5.7	2	3%	2	9%	16%
CCCN(CC(=O)Nc1ccccc1C)C(=O)c1ccc(N2CCCC2)c([N+](=O)[O-])c1	-1.3%	.	-4	.	-3	-12%	2%[15.4 µM]
Cc1cc(=O)n(CC(=O)NC2CC2)c2c1c(C)nn2-c1ccccc1	-18%	-1.3	7	-23%	-7	4%	27%
Cc1oc2ccc(NS(=O)(=O)c3ccc(C(C)(C)C)cc3)cc2c1C(=O)Nc1ccccc1	-5.4%	15	5	-18%	-2	-8%	-27%
COc1cccc(CN2CC(C(=O)NCc3cnn(C)c3)CCC2=O)c1 (centres undefined)	0.5%	.	-5	17%	14	14%	-2%[15.4 µM]
Cc1cccc(NC(=S)NCc2ccc(F)cc2)c1	1.3%	4.7	-4	9%	-20	0%	15%
CCn1c(CSCc2ccc(C)cc2)nnc1SCC(=O)NCc1ccccc1	-0.4%	0.1	-7	12%	.	-6%	15%
CC1CCN(C(C(=O)Nc2ccc3c(c2)OCO3)c2ccccc2)CC1 (centres undefined)	0.8%	4.2	-7	3%	.	9%	-7%
CC(=O)c1ccc(NC(=O)c2ccc(CSc3ccccc3)o2)cc1	1.0%	3.1	7	-18%	-9	-18%	-47%
COc1ccc(C(=O)OCC(=O)c2c[nH]c3ccccc23)c(OC)c1	0.6%	.	.	.	.	-4%	-4%
CS(=O)(=O)c1ccc(N)c(SSc2cc(S(C)(=O)=O)ccc2N)c1	-1.6%	.	-9	.	-26	-6%	-1%
Cc1cccc(NC(=O)CSc2nc3ccccc3nc2N2CCCC2)c1C	-0.5%	3.5	13	-22%	-2	?	?
